Bioassay records deposited in PubChem BioAssay by several laboratories.
PABP polyA inh = blocks human PABP binding to poly(A) RNA | actives 1% (n = 290,000) | P11940 | fluorescence polarization | inhibition, % at 35 µM | AID 2014;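 active means 50% or more with normal probe brightness, or confirmed in later tests; about a fifth of its hits are not listed in these tables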;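 further: calls also rest on retests at 20 µM and on dose response follow-up; controls were probe without protein and protein plus probe with vehicle; some compounds called inactive have numbers as strong as hits; many hits fall short of the cut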
eIF4H FP inh = inhibitors of RNA binding by human eIF4H; inhibition, % at 35 µM; Q15056; eIF4H fluorescence polarization binding assay; actives 0.94% (n = 290,000); AID 2012;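 active means 50% or more with normal probe brightness, or confirmed in later tests; about a fifth of its hits are not listed in these tables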;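 further: calls also rest on retests at 20 µM and on dose response follow-up; 0% = protein and probe with vehicle and 100% = probe without protein; strong numbers were not always called active; many hits fall short of the cut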
MT1-MMP act inh = blocks activation of human MT1-MMP | P50281 | actives 0.061% (n = 360,000) | GFP/RFP ratio change, % at 20 µM | HT1080 RFP-PRO-GFP cells, GFP/RFP ratio fluorescence, overnight; percent of plate control window, DMSO zero;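 active means GFP/RFP ratio change of at least 30% with cell ATP level not reduced by more than half and red fluorescence within 50% of control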; further: strong numbers were not always called active
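Assay system: HT1080 RFP-PRO-GFP cells | Dosing: 20 µM single dose, 1% DMSO | Incubation: Cells overnight before dosing, compound overnight, 37 °C, 5% CO2 | Evaluation: GFP/RFP fluorescence ratio | Control set: DMSO-only wells and HT1080 RFP-L50D-GFP cell wells as references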
Yeast UUG start = alters start codon recognition fidelity in yeast; S. cerevisiae UUG-firefly luciferase reporter, luminescence/redox ratio; activity score, % at 18.7 µM; actives 0.13% (n = 350,000); AID 602363;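 active means replicate mean at a twofold rise or more, about +100% in these data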;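 further: firefly luciferase made from a UUG start codon reports start codon fidelity; reporter light over untreated wells divided by growth signal over untreated wells; some hits fall short of that in this replicate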
Env fusion inh = HIV envelope-mediated fusion inhibition; HeLa-JRFL Env/CEM21 cell fusion, luciferase; inhibition, % at 12.3 µM; actives 1.1% (n = 360,000); AID 651610;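 active means mean replicate inhibition score of at least 50 and every replicate individually at or above 50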;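 further: 0% = plate neutral controls and 100% = maraviroc near 300 nM; one replicate is shown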
CSC inhib = cancer stem cell inhibition | cancer stem cell-like cells viability, luminescence | AID 2717 | inhibition, % at 7.5 µM | actives 1.1% (n = 300,000);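 active means mean at 75% or more and at least half the replicates too; tested in HMLE shEcad cells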;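 further: 0% = median of negative and 100% = median of positive control wells; the first replicate is given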
Rce1 inhib = yeast Ras-converting enzyme inhibition; Q03530; yeast membranes, quenched prenylated peptide cleavage fluorescence; calls only; actives 0.27% (n = 290,000); AID 2563;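 active means fall in fluorescence gain of 50% or more versus controls, with final raw signal at or below 3038400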;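 further: plate controls were neutral control wells for no effect and wells lacking membranes for full effect; tested at 10 µM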
Target sequence (Q03530 whole entry, looked up): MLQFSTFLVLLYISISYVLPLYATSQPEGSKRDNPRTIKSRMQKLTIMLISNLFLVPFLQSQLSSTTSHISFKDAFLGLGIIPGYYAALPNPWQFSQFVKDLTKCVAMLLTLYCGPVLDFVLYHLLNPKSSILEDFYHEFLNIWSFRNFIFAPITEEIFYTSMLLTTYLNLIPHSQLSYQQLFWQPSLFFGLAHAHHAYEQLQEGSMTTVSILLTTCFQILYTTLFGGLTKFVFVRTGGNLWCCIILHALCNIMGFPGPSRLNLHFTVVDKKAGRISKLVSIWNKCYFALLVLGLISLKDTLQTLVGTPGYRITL
eIF4H FP inh retest = also measured in eIF4H FP inh; calls as there; inhibition, %; compound at 20 µM; confirmation average;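 mean of two retest wells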
PABP polyA inh retest = further read-out of PABP polyA inh, marked with its call; inhibition, %; compound at 20 µM; confirmation repeats;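 mean of two retest wells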
MT1-MMP act inh RFP = second read-out of MT1-MMP act inh, no call of its own (marks repeat the call); RFP signal change, %; measured here: RFP expression control read;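 0 = vehicle wells; hits needed this value within 50% of zero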
* marks the source's active call; other numbers are inactive results; i = inactive; x = not tested or not shown.

SMILES	PABP polyA inh	eIF4H FP inh	MT1-MMP act inh	MT1-MMP act inh RFP	Yeast UUG start	Env fusion inh	CSC inhib	Rce1 inhib	others
CCOC(=O)N1CCc2c(sc3nc[nH]c(=O)c23)C1	6	3	-1	4	x	20	-16	i
CC(C)(C)c1ccc2c(c1)C(=O)c1ccccc1C2=O	3	-4	2	-6	-50	-217	15	i
Cc1c(Cl)cccc1NC(=O)CC1SC(=NCC2CCCO2)NC1=O (stereo unspecified)	7	2	3	5	x	-15	-8	i
Cc1cc(-c2nc3ncccc3o2)ccc1NC(=O)CC(C)C	-26	-3	3	1	-19	-11	-6	i
COc1ccc(CNC(=O)C2(CC3CC(c4ccccc4)=NO3)CCN(C(=O)CCCCCBr)CC2)cc1 (stereo unspecified)	x	x	-4	6	-19	4	5	i
CCOc1ccc(C(=O)NC2CCN(C(=S)Nc3ccccc3C)CC2)cc1	-8	-10	1	1	x	-16	-3	i
Cc1cc(C)c(S(=O)(=O)NCc2ccc3c(c2)cc(C)n3C)c(C)c1	5	40	40	51	-2	8	52	i
CC1=C(C(=O)OCC(Cl)(Cl)Cl)N2C(=O)C(NC(=O)Cc3ccccc3)C2SC1 (stereo unspecified)	-5	-2	0	-2	6	15	2	i
COc1cc(/C=N/NC(=O)c2cccc3ccccc23)cc(OC)c1O	12	5	x	x	-17	-8	-7	i
Cc1cc(Br)cn2c(Cc3ccsc3)c(-c3ccccc3)nc12	x	x	-1	7	13	-27	x	x
O=C(Cc1cccs1)NCc1ccco1	16	-6	1	4	-19	x	-13	i
Cc1cc(C)c(C)c(S(=O)(=O)N2CCN(c3ccc(O)cc3)CC2)c1C	-6	0	-9	-3	x	18	85*	i
COc1ccc(CN(C)C(=O)COC(=O)c2c(-c3ccccc3Cl)noc2C)cc1	-3	-11	2	-6	-10	-1	x	i
O=C(Nc1ccc(F)cc1)c1oc2ccccc2c1NC(=O)C1CC1	13	-10	-4	-3	-13	-5	-9	i
CN(CC(=O)O)S(=O)(=O)c1ccc2oc3ccccc3c2c1	3	-9	1	5	-20	14	-8	i
CCOC(=O)C1CCC2(CC1)C(C#N)=C(N)Oc1n[nH]c(C)c12 (stereo unspecified)	1	-3	6	1	-22	-8	-7	i
C/C(=N\NC(=S)NCc1ccccc1)c1ccccc1	1	2	0	-9	-42	4	7	i
CSc1ccc(-c2sc(Nc3ccccc3)n[n+]2-c2ccc(F)cc2)cc1	12	-14	x	x	-23	x	-20	i
COc1ccc(S(=O)(=O)N(C)c2ccc(C(=O)NC3CC3)cc2)cc1	1	-10	0	-1	-4	11	7	i
COc1cc(OC)cc(C(=O)NC(C)CCc2ccccc2)c1 (stereo unspecified)	1	0	3	-1	-13	9	-7	i

Among those listed so far, these have an aryl methoxy group.
SMILES	PABP polyA inh	eIF4H FP inh	MT1-MMP act inh	MT1-MMP act inh RFP	Yeast UUG start	Env fusion inh	CSC inhib	Rce1 inhib	others
COc1ccc(CNC(=O)C2(CC3CC(c4ccccc4)=NO3)CCN(C(=O)CCCCCBr)CC2)cc1 (stereo unspecified)	x	x	-4	6	-19	4	5	i
COc1cc(/C=N/NC(=O)c2cccc3ccccc23)cc(OC)c1O	12	5	x	x	-17	-8	-7	i
COc1ccc(CN(C)C(=O)COC(=O)c2c(-c3ccccc3Cl)noc2C)cc1	-3	-11	2	-6	-10	-1	x	i
COc1ccc(S(=O)(=O)N(C)c2ccc(C(=O)NC3CC3)cc2)cc1	1	-10	0	-1	-4	11	7	i
COc1cc(OC)cc(C(=O)NC(C)CCc2ccccc2)c1 (stereo unspecified)	1	0	3	-1	-13	9	-7	i

Following part
SMILES	PABP polyA inh	eIF4H FP inh	MT1-MMP act inh	MT1-MMP act inh RFP	Yeast UUG start	Env fusion inh	CSC inhib	Rce1 inhib	others
CCOc1ccc(CN2CCN(Cc3cccc4nonc34)CC2CCO)cc1 (stereo unspecified)	-10	-4	6	4	x	-7	-9	i
COc1ccc(NC(=O)Nc2ncccc2C)cc1	-8	-5	3	4	-17	x	-12	i
COc1ccc(C(NC(=O)CN2C(=O)NC3(CCc4ccccc43)C2=O)c2ccc(OC)cc2)cc1 (stereo unspecified)	x	x	5	-2	9	-81	x	x
COc1ccccc1-c1cccc([C@@H]2C[C@H]3[C@H](CON3C)CN2Cc2ccccc2)c1	x	x	-6	-12	-8	-4	x	x
CCc1ccc(NC(=O)C(C)Sc2nc(-c3ccco3)c(C#N)c(=O)[nH]2)cc1 (stereo unspecified)	3	4	-3	3	-18	-74	50	i
Cc1nnc(NC(=O)CSc2nc3ccccc3o2)s1	6	-4	-5	-5	-6	x	-10	i
CSc1nnc(NC(=O)c2cccc(S(=O)(=O)N3CCOCC3)c2)s1	-7	-14	2	3	-10	-10	-5	i
Cc1cc(=O)[nH]c(N2CCCC2)n1	-1	3	2	0	-4	x	x	i
Cc1ccc(Oc2ccc(Cl)cc2NC(=O)c2ccc(F)cc2F)cc1	-8	-8	3	-5	-9	4	8	i
O=C1CCC(=O)N1c1ccc(S(=O)(=O)Nc2cccc([N+](=O)[O-])c2)cc1	2	-13	0	-1	1	-4	-1	i
Cc1ccc(CNS(=O)(=O)c2ccc(-n3cccn3)cc2)cc1	x	x	1	3	11	10	x	x
COc1cccc(NC(=O)C(OC(=O)c2ccc([N+](=O)[O-])o2)c2ccccc2)c1 (stereo unspecified)	4	7	-2	-4	x	12	11	i
O=C1CCC(=O)N(O)CCCCCNC(=O)CCC(=O)N(O)CCCCNC(=O)CCC(=O)N(O)CCCCCN1	19	7	-1	4	-13	x	-10	i
O=c1[nH]cnc2c1c(-c1ccccc1)cn2-c1ccc(F)cc1	-3	-5	4	-3	-7	3	-9	i
COc1ccc(C(=O)NCCNC(=O)c2ccc(OC)cc2)cc1	x	x	0	1	-18	-8	-6	i
O=C(Nc1ccc(Cc2ccc(NC(=O)C3CC3)c(O)c2)cc1O)C1CC1	9	-6	6	-3	-10	-37	-3	i
Brc1cccc(/C=N\n2cnnc2)c1	-4	-4	-8	-9	-16	-311	17	i
Cc1nc(C(=O)NNC(=O)c2c(-c3c(Cl)cccc3Cl)noc2C)cs1	-2	11	3	2	x	1	35	i
CCC(C(=O)N1CCOCC1)n1nc(C)n2c(cc3cc(C)ccc32)c1=O (stereo unspecified)	6	-7	-2	2	1	5	-10	i
Cc1cc(Br)cn2c(Cc3ccccc3C(F)(F)F)c(C3CCCCC3)nc12	x	x	-3	-4	-3	-5	x	x

Retrieved by compound from above (5):
SMILES	PABP polyA inh	eIF4H FP inh	MT1-MMP act inh	MT1-MMP act inh RFP	Yeast UUG start	Env fusion inh	CSC inhib	Rce1 inhib	others
CCc1ccc(NC(=O)C(C)Sc2nc(-c3ccco3)c(C#N)c(=O)[nH]2)cc1 (stereo unspecified)	3	4	-3	3	-18	-74	50	i
CCC(C(=O)N1CCOCC1)n1nc(C)n2c(cc3cc(C)ccc32)c1=O (stereo unspecified)	6	-7	-2	2	1	5	-10	i
Brc1cccc(/C=N\n2cnnc2)c1	-4	-4	-8	-9	-16	-311	17	i
COc1ccc(C(=O)NCCNC(=O)c2ccc(OC)cc2)cc1	x	x	0	1	-18	-8	-6	i
Cc1ccc(CNS(=O)(=O)c2ccc(-n3cccn3)cc2)cc1	x	x	1	3	11	10	x	x

Going on with the list.
SMILES	PABP polyA inh	eIF4H FP inh	MT1-MMP act inh	MT1-MMP act inh RFP	Yeast UUG start	Env fusion inh	CSC inhib	Rce1 inhib	others
COc1ccc(N2CCN(C(=O)CN3CCN(c4nc(-c5ccc(F)cc5)cs4)CC3)CC2)cc1	4	0	-8	-30	-5	32	1	i
CCN1CCN(C(c2cccs2)C(C)NS(=O)(=O)c2ccc(F)cc2)CC1 (stereo unspecified)	2	-2	9	-1	-17	-18	-10	i
COc1cccc(NC(=O)CCNS(=O)(=O)c2ccc3c(c2)CC(C)N3C(=O)C2CC2)c1 (stereo unspecified)	0	-4	0	-1	-35	22	-2	i
COc1ccccc1-n1nc(C)c(-c2ccccc2)c1N	4	4	1	3	x	20	-6	i
COc1ccccc1C(c1nnnn1C(C)(C)C)N1CCN(Cc2ccncc2)CC1 (stereo unspecified)	8	-16	-3	2	-22	x	-13	i
N#CCC(=N)N1CCN(c2cccc(Cl)c2)CC1	-15	-1	1	3	-5	x	x	i
O=C(CCCN1C(=O)C2CC=CCC2C1=O)Nc1ccccc1F (stereo unspecified)	9	2	-2	3	-8	-6	0	i
CC(C)(C)NC(=O)COC(=O)c1cc(F)c(F)cc1Cl	-4	-8	1	5	-11	-38	3	x
O=C(COc1ccc2oc(-c3ccco3)cc(=O)c2c1)N1CCCCC1	-4	19	3	2	x	0	12	i
CC(=O)c1cccc(NC(=O)c2cc(-c3ccc(F)cc3)on2)c1	-5	-1	-3	-2	0	x	-5	i
Cc1cc(C)cc(N(CC(=O)NC(C)C)C(=O)CCC(=O)Nc2ccccn2)c1	-7	-2	2	-1	-3	-3	-34	i
O=C(N/C(=C/c1cccs1)C(=O)N1CCOCC1)c1ccccc1	7	-12	1	4	x	-9	0	i
CC(=O)N/N=C(\N)c1nonc1N	-5	-3	-3	2	-10	-13	-9	i
CCCN(C(=O)C(C)Oc1cccc(Cl)c1)c1c(N)n(Cc2ccccc2)c(=O)[nH]c1=O (stereo unspecified)	7	2	-3	1	-5	-17	5	i
N#Cc1ccccc1/C=N/Nc1nc(-c2ccccc2)c2cc(Br)ccc2n1	-15	-11	0	1	-8	-58	3	i
O=C(COc1cc(F)ccc1[N+](=O)[O-])Nc1cccc(Br)c1	-1	0	2	1	9	-14	2	i
Clc1ccc(OCc2cc(-c3ccccc3)no2)c(Cl)c1	2	6	0	1	3	x	9	x
Cc1ccc(S(=O)(=O)N2CCC(NC(=O)c3ccccc3)CC2)cc1	-2	-6	1	1	x	20	0	i
COc1ccnc(CSC(N)=Nc2ccc(F)cc2)c1	6	68	-5	10	-14	-60	-4	i	eIF4H FP inh retest=-6;PABP polyA inh retest=3
Cc1ccc(Nc2nc3ccccc3n3cnnc23)cc1C	2	5	2	1	-9	8	-15	i
O=C(c1c(F)cccc1F)N1CCCC1	5	5	2	2	x	10	-15	i
CCC(c1nnnn1CCOC)N(Cc1cc2c(C)cc(C)cc2[nH]c1=O)CC1CCCO1 (stereo unspecified)	4	-13	2	0	-8	x	16	i
O=S(=O)(Nc1nc2ccccc2nc1NCc1ccco1)c1cccs1	27	12	-21	0	-15	9	34	i
Cc1c(-c2ccccc2)sc(Br)c1C(=O)N1CCOCC1	-12	-7	0	-1	-2	-19	-9	i
O=C(Oc1ccc(C(=S)N2CCOCC2)cc1)c1cccc([N+](=O)[O-])c1	0	-8	0	5	-27	2	-21	i
COc1ccc(C(CC(=O)O)NC(=O)COc2cc(C)ccc2C)cc1OC (stereo unspecified)	-8	-1	1	1	-9	-5	15	i
C[n+]1cn(Cc2cc(Cl)ccc2OC(F)F)c2ccccc21	6	0	-1	-7	-20	-9	-13	i
CC(=O)Nc1cccc(NC(=O)CSc2nc(=O)n3cccc(C)c3n2)c1	x	x	5	2	x	6	-6	i

Not a hit list. Share with any hit: about 3%.
